Compound activity: PubChem, several laboratories
FPRL1 ligand = ligands of human FPRL1, also counter-screen for FPR ligands | P25090 | AID 441 | inhibition, %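 (tested at 6.7 µM)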 | 0.3% of 24,000 active | FPRL1-expressing cells, fluorescent ligand binding inhibition, flow cytometry;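 also: 0% = buffer alone and 100% = receptor blocker peptide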
Target sequence (P25090 whole entry, looked up): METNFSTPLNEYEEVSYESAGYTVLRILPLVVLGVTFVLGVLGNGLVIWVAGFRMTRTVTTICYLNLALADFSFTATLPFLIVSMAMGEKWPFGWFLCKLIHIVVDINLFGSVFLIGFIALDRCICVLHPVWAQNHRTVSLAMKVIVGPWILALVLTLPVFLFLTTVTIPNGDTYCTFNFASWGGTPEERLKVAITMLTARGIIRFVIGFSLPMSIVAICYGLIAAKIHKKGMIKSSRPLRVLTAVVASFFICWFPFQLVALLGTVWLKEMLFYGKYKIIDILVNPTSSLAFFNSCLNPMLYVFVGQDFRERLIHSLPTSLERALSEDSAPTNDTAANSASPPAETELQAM
FPR ligand = binds the human formylpeptide receptor FPR | 0.74% of 24,000 active | AID 440 | FPR-expressing cells, fluorescent ligand binding, flow cytometry | inhibition, %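 (tested at 6.7 µM)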;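 also: 0% = buffer wells and 100% = receptor blocker peptide wells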
Target sequence (P21462 whole entry, looked up): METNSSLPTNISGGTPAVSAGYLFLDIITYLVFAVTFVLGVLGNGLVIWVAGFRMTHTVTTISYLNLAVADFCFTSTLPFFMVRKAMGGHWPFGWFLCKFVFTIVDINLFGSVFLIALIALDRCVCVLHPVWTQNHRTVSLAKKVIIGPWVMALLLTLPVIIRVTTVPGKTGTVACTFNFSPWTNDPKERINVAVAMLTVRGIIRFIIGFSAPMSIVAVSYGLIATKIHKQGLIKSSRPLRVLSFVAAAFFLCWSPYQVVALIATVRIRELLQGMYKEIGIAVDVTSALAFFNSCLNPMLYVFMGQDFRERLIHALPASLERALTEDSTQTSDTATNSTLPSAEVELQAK
VCAM-1 down = suppression of endothelial VCAM-1 upregulation – cell-based, plate reader, pooled HUVEC, TNFa stimulus (AID 454) | inhibition, % at 5 µM | 0.2% of 10,000 active | HUVEC TNFa-induced VCAM-1 surface immunofluorescence, plate reader; numbers were filed only for top-ranked candidate wells;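 active = compound among top-ranked inhibitors of TNF-induced VCAM-1 adhesion protein staining, with the hit upheld by image or statistical review; inactive = the rest, including hits rejected on review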;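 also: 0% = TNFa with vehicle and 100% = cells without TNFa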
VCAM-1 augmentation = enhancers of VCAM-1 display on endothelial cells, imaging, high-content imaging, pooled HUVEC, TNFa stimulus (AID 457) | Pooled HUVEC, TNFa-induced VCAM-1 immunofluorescence imaging; hits of this screen are not shown here | calls only | 0.2% of 10,000 active;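 active = a top-ranked rise in VCAM-1 staining upheld on image or statistical review; inactive = the rest, including candidates rejected on review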;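 also: compounds tested at 5 µM in the well; cells exposed to compound for 24 hours before fixing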
VCAM-1 down imaging = inhibitors of TNFa-induced VCAM-1 surface display, imaging, high-content imaging, pooled HUVEC, TNFa stimulus (AID 456); 0.2% of 10,000 active; HUVEC TNFa-induced VCAM-1 surface expression, immunofluorescence imaging; numbers were filed only for top-ranked candidate wells; inhibition, % at 5 µM, or IC50 in µM where a hit was titrated;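 active = top tenth filtered wells with inhibition above zero that passed visual or statistical confirmation; inactive = the rest, including hits rejected on review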;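 also: 0% = stimulated vehicle wells and 100% = unstimulated cells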
* hit, by the source's call; i = inactive; . = not tested or not shown.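 The calls were made as follows, unless noted: active = mean above 30%; inconclusive = self-fluorescent; inactive = the rest.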 Not all compounds are listed; count on the stated rates, not on these rows.

SMILES	FPRL1 ligand	FPR ligand	VCAM-1 down	VCAM-1 augmentation	VCAM-1 down imaging
Cc1ccc(NC(=O)C2CCCN(S(=O)(=O)c3cnc[nH]3)C2)c(Br)c1 (centres undefined)	4.9	-0.6	i	i	i
Cc1ccc(C)c(-n2c(CNC(=O)c3ccco3)nnc2SCC(=O)Nc2nnc(C)s2)c1	-1.6	1.2	i	i	i
Cc1nnc2n(Cc3ccccc3)c(=O)c3c4c(sc3n12)COC(C(C)C)C4 (centres undefined)	-4.5	1.3	i	i	i
Cn1c(SCC(N)=O)nnc1C1CCN(C(=O)NCc2ccccc2)CC1	1.0	-1.3	i	i	i
Cc1cc(SCC(N)=O)nc(SCC(=O)c2ccccc2)n1	48.8*	48.2*	i	i	i
CS(=O)(=O)N1CCCC(C(=O)NCCCN2CCc3ccccc3C2)C1 (centres undefined)	4.7	-2.5	i	i	i
CN(CC(=O)NCCC1=CCCCC1)S(=O)(=O)c1ccc2c(c1)CCC(=O)N2	-3.6	-0.6	i	i	i
Cc1cc2n(n1)C(c1ccccc1)Nc1ccccc1-2 (centres undefined)	-2.8	3.6	i	i	i
COc1ccc(NC(=O)c2oc3ccc(S(=O)(=O)N4CCC5(CC4)OCCO5)cc3c2C)cc1	0.1	-0.2	i	i	i
O=C(C1=C(O)C(=O)N(Cc2ccco2)C1c1ccccc1)c1cccs1 (centres undefined)	-8.9	71.3*	.	.	.
Cn1c(=O)n(CC(=O)OCc2ccccc2)c(=O)c2c1nc1n2CCCN1C1CCCCC1	-4.5	-6.1	i	i	i
Cc1ccc(C)c(NC(=O)CS(=O)(=O)c2cn(C)c3ccccc23)c1	-1.2	1.0	.	.	.
CCCCn1c(CN2CCN(c3cccc(Cl)c3)CC2)nc2c1c(=O)[nH]c(=O)n2C	8.9	-1.9	.	.	.
COc1cc(CO)cc(-c2cc(CO)cc(OC)c2OC)c1OC	-0.6	0.6	i	i	i
COc1ccc(Nc2nnc(Cc3ccccc3)c(=O)[nH]2)c(OC)c1	-6.1	17.2	.	.	.
c1nc(N2CCC3(CC2)OCCO3)c2[nH]cnc2n1	-2.3	-0.9	.	.	.
CCOC(=O)C1=C(C)Nc2nc(SCC(=O)OC)nn2C1c1cc(F)cc(F)c1 (centres undefined)	-2.5	-10.6	i	i	i
CCOc1ccc(-c2nc(S(=O)(=O)c3ccccc3)c(NCc3cccnc3)o2)cc1	2.3	11.2	i	i	i
O=C(Nc1ccc(-c2nc3ccccc3[nH]2)cc1)c1ccco1	-6.3	-0.2	.	.	.
CCOc1ccc2ccccc2c1/C=N/n1cncn1	0.7	4.4	i	i	i
Cc1noc(C)c1COc1cccc(C(=O)Oc2ccc3c(c2)OCO3)c1	-2.4	-2.3	i	i	i
O=C(c1cccn2c(=O)c3cc(Cl)ccc3nc12)N1CCOCC1	-3.3	-9.0	i	i	i
CC1CCN(Cc2nc3c(c(=O)n(C)c(=O)n3C)n2Cc2cccc3ccccc23)CC1	0.4	9.8	i	i	i
C=CCN1C(=O)C2(/C(=C(\O)c3ccc4c(c3)OCCO4)C(=O)C(=O)N2CCCOC)c2ccccc21 (centres undefined)	1.9	31.6*	i	i	i
CS(=O)(=O)N(CC(=O)N1CCN(c2cccc(Cl)c2)CC1)C1CCCCC1	0.8	0.2	i	i	i
Additional records follow:
SMILES	FPRL1 ligand	FPR ligand	VCAM-1 down	VCAM-1 augmentation	VCAM-1 down imaging
CCOC(=O)C1CCN(c2c(N(C)Cc3ccco3)c(=O)c2=O)CC1	0.0	-6.3	i	i	i
CCOC(=O)N1CCC(NC(=O)CCS(=O)(=O)c2ccc3c(c2)CCN3C(C)=O)CC1	-2.1	0.9	.	.	.
Cc1ccc(-c2cc(=O)[nH][nH]2)c(C)c1	3.3	-2.3	.	.	.
O=C1c2ccccc2C(Nc2ccc3c(c2)OCCO3)N1c1ccc(Cl)cn1 (centres undefined)	-3.5	2.5	.	.	.
Cc1cc(NS(=O)(=O)c2ccccc2)n(-c2ccccc2)n1	-8.5	1.8	i	i	i
CS(=O)(=O)N1CCCC(C(=O)NCc2cccs2)C1 (centres undefined)	3.2	1.8	.	.	.
COc1ccccc1-n1cnc2cc(C(=O)NCc3ccco3)ccc21	2.7	-0.8	.	.	.
CCN(CC)CCOC(=O)c1ccc(N=CC2=C(O)CC(C)(C)CC2=O)cc1	1.5	6.3	.	.	.
COc1ccc(Cl)cc1N1C(=O)C2CCCN2C1c1ccccc1F (centres undefined)	-1.2	-11.3	.	.	.
Cc1oc2c(C)c(O)ccc2c(=O)c1-c1cnn(-c2ccccc2)c1	-6.7	-8.2	.	.	.
O=C(CN1C(=O)C2CC=C(Cl)CC2C1=O)Nc1ccc(C(=O)O)cc1 (centres undefined)	1.0	1.6	i	i	i
CCOC(=O)N1CCC(NC(=O)c2cc(C(=O)NCc3ccc(F)cc3)ccc2CO)CC1	4.5	2.8	.	.	.
COc1ccccc1-n1nnnc1SCc1cc2c(cc1Br)OCO2	-0.6	-4.7	i	i	i
O=C(COC(=O)c1cc(S(=O)(=O)N2CCOCC2)ccc1O)NCC1CCCO1 (centres undefined)	3.1	7.4	i	i	i
CCOc1ccc(S(=O)(=O)NCc2ccc(F)cc2)c2cccnc12	0.8	0.5	.	.	.
COc1cc2c(C(=O)NCc3ccc4c(c3)OCO4)cn(C)c(=O)c2cc1OC	-8.7	-2.3	.	.	.
Cc1cc(C(=O)O)ccc1-n1c(C)ccc1C	-5.8	-5.7	i	i	i
COc1ccccc1NC(=O)N1CCN(c2ccc3nncn3n2)CC1	1.5	-4.2	.	.	.
Cc1nc2c(-c3ccc(F)cc3)c(C)nn2c(C)c1CCC(=O)NC(C)CCc1ccco1 (centres undefined)	-5.8	44.3*	i	i	i
CCCN1C(=O)c2cc(C(=O)NC3CCCCCC3)ccc2C1O (centres undefined)	8.8	5.0	.	.	.
Cn1c2ccccc2c(=O)n2c(=O)c3ccccc3cc12	-4.0	-3.7	.	.	.
CCOC(=O)CN1CC23C=CC(O2)C(C(=O)NCc2ccc(C)cc2)C3C1=O (centres undefined)	2.3	1.1	.	.	.
CN(CC(=O)N1CCc2ccccc21)S(=O)(=O)c1cccs1	0.2	-0.9	.	.	.
CCOC(=O)CSc1nnc(Cc2cc(=O)[nH]c(=O)[nH]2)n1-c1cccc(OC)c1	-1.9	2.7	.	.	.
Cc1cc(NC(=O)c2cn(C3CCCCC3)c(=O)c3c2c2ccccc2n3C)no1	0.3	-1.4	.	.	.

In the list so far, two have bromine:
SMILES	FPRL1 ligand	FPR ligand	VCAM-1 down	VCAM-1 augmentation	VCAM-1 down imaging
Cc1ccc(NC(=O)C2CCCN(S(=O)(=O)c3cnc[nH]3)C2)c(Br)c1 (centres undefined)	4.9	-0.6	i	i	i
COc1ccccc1-n1nnnc1SCc1cc2c(cc1Br)OCO2	-0.6	-4.7	i	i	i

Going on with the list.
SMILES	FPRL1 ligand	FPR ligand	VCAM-1 down	VCAM-1 augmentation	VCAM-1 down imaging
O=C(NCc1cccs1)C(Cc1ccccc1)n1cccc1 (centres undefined)	0.4	-8.4	i	i	i
O=C(NCCCN1CCC(Cc2ccccc2)CC1)C1CCC(=O)N1C1CCCC1 (centres undefined)	7.1	0.9	.	.	.
Cc1cc(NS(=O)(=O)c2ccc(NC(=O)c3ccoc3C)cc2)nc(C)n1	-1.4	-0.9	.	.	.
CC(O)c1c(OCc2ccccc2)ncnc1OCc1ccccc1 (centres undefined)	-0.9	1.3	i	i	i
Cc1ccc(C2/C(=C(/O)c3ccc(OC(C)C)cc3)C(=O)C(=O)N2CCN2CCOCC2)cc1 (centres undefined)	-5.5	5.6	.	.	.
COc1ccc(CCNC(=O)c2ccc3nc(-c4ccco4)c(-c4ccco4)nc3c2)cc1OC	1.0	9.4	.	.	.
COc1cc(C(=O)N2CCN(c3cc(Cl)ccc3Cl)CC2)cc(OC)c1OC	-0.5	-1.4	i	i	i
CCN(CC)S(=O)(=O)c1ccc(Br)c(OC)c1	-1.3	2.5	i	i	i
Cn1c(Cn2c(=O)sc3ccccc32)nnc1SCC(=O)NCc1ccco1	-6.4	1.6	.	.	.
CC1=Nn2c(nnc2-c2cc(-c3ccccc3)n[nH]2)SC1	11.3	12.4	i	i	i
Cc1c(C(=O)NCCCN2CCOCC2)sc2nc(-c3ccc(F)cc3)cn12	13.6	9.8	.	.	.
Cc1nc(Sc2nnnn2-c2ccccc2)c(C#N)c(C)c1C	8.5	7.0	.	.	.
c1ccc(C(Cc2nc(-c3ccccn3)no2)c2ccccc2)cc1	-8.1	2.0	i	i	i
O=C(CNC(=O)c1cccs1)NCCN1CCN(c2ccccc2F)CC1	3.8	6.8	i	i	i
COc1ccc(N2C(=O)c3cccc4cccc(c34)C2=O)nn1	-1.5	2.2	i	i	i
O=C(NC1CCCCC1)C1CC(=O)N(c2ccc(Cl)cc2)C1 (centres undefined)	4.4	0.1	.	.	.
Cc1c(C(=O)N2CCCc3ccccc32)oc2ccc(S(=O)(=O)N3CCOCC3)cc12	-12.9	4.3	.	.	.
CCc1cccc(NS(=O)(=O)c2c(C)n[nH]c2C)c1	4.7	0.6	i	i	i
Cc1ccc(-c2nc(CSCC(=O)N3CCN(C(=O)c4ccco4)CC3)c(C)o2)cc1	4.0	-1.4	.	.	.
O=C(O)c1ccc(Cl)c2c1C1C=CCC1C(c1ccccn1)N2 (centres undefined)	1.8	8.1	.	.	.
CCOC(=O)C(NC(=O)CC)(Nc1ccc(S(=O)(=O)Nc2onc(C)c2C)cc1)C(F)(F)F (centres undefined)	3.1	-2.0	i	i	i
Cc1ccccc1-n1c(SCc2c(C)noc2C)nnc1-c1ccncc1	-5.1	-3.1	i	i	i
CC(C)Sc1ncnc2c1oc1ccccc12	-6.8	3.7	.	.	.
Cc1cc(N2CCOCC2)nc2ccc(NC(=O)CCC(=O)N3CCCCC3)cc12	1.0	-5.2	.	.	.
Cc1ccc(C)n1-c1ccc(-n2cnnn2)cc1	-0.2	12.8	i	i	i

3 compounds from above, arranged by the value under FPR ligand, highest first.
Compound | FPR ligand | VCAM-1 down | VCAM-1 augmentation | VCAM-1 down imaging
c1ccc(C(Cc2nc(-c3ccccn3)no2)c2ccccc2)cc1 | 2.0 | i | i | i
O=C(NCCCN1CCC(Cc2ccccc2)CC1)C1CCC(=O)N1C1CCCC1 (centres undefined) | 0.9 | . | . | .
O=C(NCc1cccs1)C(Cc1ccccc1)n1cccc1 (centres undefined) | -8.4 | i | i | i

Additional records.
SMILES	FPRL1 ligand	FPR ligand	VCAM-1 down	VCAM-1 augmentation	VCAM-1 down imaging
NC(=O)CSc1nnc(-c2cnccn2)n1-c1ccccc1	-0.4	-3.7	i	i	i
CCOC(=O)N1CCC(NC(=O)c2cc3ccccn3n2)CC1	-3.8	-6.4	.	.	.
CCOCCCNC(=O)C(NC(=O)c1ccccn1)c1ccc(C)cc1 (centres undefined)	1.3	14.4	i	i	i
O=C(CSc1nc2c(c(=O)n1-c1ccc(F)cc1)SCC2)NCC1CCCO1 (centres undefined)	10.0	8.0	i	i	i
COc1ccc(NC(=O)Cn2nnc(-c3ccccc3N)n2)cc1OC	8.6	19.3	i	i	i
CCN(CC)CCOC(=O)C1(c2ccc(OC)c(OC)c2)CCCC1	0.0	-2.8	i	i	i
CCOC(=O)c1sc(=NC(=O)c2ccc(S(=O)(=O)N3CC(C)OC(C)C3)cc2)n(C)c1C (centres undefined)	-0.9	-2.3	.	.	.
COc1ccc(C2C(C(=O)Nc3cccc(C)n3)c3ccccc3C(=O)N2C)cc1OC (centres undefined)	4.0	4.5	.	.	.
Cc1ccc(S(=O)(=O)NCc2ccc(C(=O)NCCCN3CCN(C)CC3)cc2)cc1	5.3	1.6	.	.	.
O=S(=O)(Nc1ccn(-c2ccccc2)n1)c1ccc(Br)cc1	3.7	2.5	i	i	i
Cc1[nH]nc2c1C(c1ccc(F)cc1)C1=C(CC(C)(C)CC1=O)N2 (centres undefined)	0.7	4.5	i	i	i
CCCNC(=O)NC(C(=O)OC)C12CC3CC(CC(C3)C1)C2 (centres undefined)	-4.8	8.8	i	i	i
CCOC(=O)N1CCC(N(CCOC)C(=O)Nc2ccc(Cl)cc2)CC1	1.6	2.4	.	.	.
O=C(NCCO)c1cc2ccccc2c(=O)s1	2.3	-1.4	.	.	.
O=C(CN1CCN(C(=O)c2ccccc2)CC1)Nc1ncc(Br)cc1Br	9.4	2.3	i	i	i
CSc1nc(-c2ccco2)nn1C(=O)c1ccc(C)cc1	0.7	-3.2	.	.	.
O=C(OCn1nnc2ccccc2c1=O)c1cc2ccccc2o1	8.2	-1.8	i	i	i
N#Cc1c(N)c(C(=O)c2ccccc2)n2c1CCCC2	-3.8	0.5	i	i	i
CCC(C)NC(=O)C1(C)CCC(=O)N1CCc1ccc(OC)c(OC)c1 (centres undefined)	-2.8	-2.3	i	i	i
CCc1c(C)nc(N2CCN(Cc3ccccc3)CC2)[nH]c1=O	-7.6	19.7	i	i	i
COC(=O)CSc1nnc(CNC(=O)c2cccs2)n1-c1cccc(C)c1	7.8	1.3	.	.	.
